RE007 growth inh: qHTS Assay for Inhibitors of the HIV-1 protein Vpr | hit rate 0.21% among 360,000 | S. pombe RE007 Vpr strain, BacTiter-Glo ATP luminescence, 24 h; control for the full effect not named in the record | Potency, µM (highest dose often 92.2 µM), for the others: at the highest dose activity change, negative = less growth; active = well fitted falling curve with a large enough effect; inconclusive = small, poorly fitted or top-dose-only effect; inactive = no such curve, though single readings can be large or run the other way;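 also: % is scaled to controls: 0 for no effect and ±100 for the full control effect; nearly all actives have a fitted effect of over 50% in size; the assay follows cell death caused by Vpr and the record does not say whether a fall means rescue or toxicity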
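Fission yeast strain RE007, carrying one chromosomally integrated HIV-1 vpr copy, was seeded at OD 0.01 in PMG+AL medium with 23 nL pinned compound. After 24 h at 30 °C and 99% humidity, viability was read by BacTiter-Glo luminescence.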
MARV entry inh: qHTS for inhibitors of binding or entry into cells for Marburg Virus. Marburg virus pseudotyped entry inhibition, cell reporter; control for the full effect not named in the record; about a third of the inactives were read at about 46 µM. Potency, µM (highest dose often 37.8 µM), for inactives: at the highest dose activity change, negative = inhibition, most hits filed as inhibitors. hit rate 1.8% among 300,000; active = well fitted inhibition curve with a large enough effect; inconclusive = small, poorly fitted or top-dose-only effect, or effect the other way; inactive = flat fitted curve, though single readings scatter; tested in HEK293 cells; about a fifth of its hits are not listed in these tables; also: % is scaled to controls: 0 for no effect and ±100 for the full control effect; luciferase read-out
Cruzain Triton: qHTS Assay for Promiscuous and Specific Inhibitors of Cruzain (with detergent). purified cruzain, Z-FR-AMC fluorescence, 0.01% Triton. Potency, µM, for the others: max response, negative = inhibition, most hits filed as inhibitors. hit rate 0.43% among 200,000; active = well fitted curve in the direction sought with a large enough effect; inconclusive = small, poorly fitted or top-dose-only effect, or another doubt; inactive = no such curve, though single readings can be large; an effect the other way counts as inactive or inconclusive;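 also: plate controls were neutral wells for no effect and buffer without enzyme for full effect; nearly all actives have a fitted effect of over 40% in size; top concentration of the series not given in the record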
Target sequence (P25779 123-467 limits assumed): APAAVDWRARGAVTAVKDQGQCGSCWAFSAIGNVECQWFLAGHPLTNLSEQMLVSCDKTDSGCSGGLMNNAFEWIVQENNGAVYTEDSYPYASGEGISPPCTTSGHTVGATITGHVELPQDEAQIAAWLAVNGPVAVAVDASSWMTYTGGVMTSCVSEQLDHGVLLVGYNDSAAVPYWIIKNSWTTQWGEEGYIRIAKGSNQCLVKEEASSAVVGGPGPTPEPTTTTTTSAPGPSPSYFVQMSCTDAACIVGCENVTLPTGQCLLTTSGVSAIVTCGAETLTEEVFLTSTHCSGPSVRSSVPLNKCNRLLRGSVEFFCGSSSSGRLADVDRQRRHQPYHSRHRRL
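Cruzain (1.5 nM) preincubated 15 min at RT with compound in 100 mM sodium acetate pH 5.5, 5 mM DTT, 0.01% Triton X-100. Reaction started with 2 uM Z-FR-AMC; AMC fluorescence (ex 360/em 450 nm) change over 60 s gave rate.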
Cruzain inh noDet: qHTS Assay for Promiscuous and Specific Inhibitors of Cruzain (without detergent) | Potency, µM, without a hit: max response, negative = inhibition, actives largely listed as inhibitors | purified cruzain, Z-FR-AMC fluorescence, no detergent | Cruzipain (Trypanosoma cruzi), P25779 | hit rate 2.3% among 200,000 | AID 1476, 2009; active = well fitted curve in the direction sought with a large enough effect; inconclusive = small, poorly fitted or top-dose-only effect, or another doubt; inactive = no such curve, though single readings can be large; an effect the other way counts as inactive or inconclusive;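 also: plate controls were enzyme without inhibitor for no effect and buffer without enzyme for full effect; nearly all actives have a fitted effect of over 40% in size; top concentration of the series not given in the record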
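Detergent-free condition (0.00005% Triton X-100) in acetate buffer pH 5.5 with DTT. 1.5 nM enzyme and compound were pre-mixed 15 min, then 2 uM Z-FR-AMC substrate added; reaction progress from fluorescence change between first and third reads (60 s).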
SARS PLP yeast: qHTS of Yeast-based Assay for SARS-CoV PLP | Potency, µM (highest dose often 32.9 µM), for the others: top-dose activity, positive = growth rescue | AID 485353, 2010 | hit rate 0.19% among 330,000 | S. cerevisiae expressing SARS-CoV PLpro, growth rescue; control for the full effect not named in the record; also: 0% is about no effect; nearly all actives have a fitted effect of over 55% in size; growth read by luminescence after 48 h
StopGo reporter: High Throughput Screening for Foot and Mouth Disease Virus Antivirals; human cells with a luciferase reporter of 2A StopGo recoding; control for the full effect not named in the record; Potency, µM (series often up to 57.9 µM), for the others: at the top dose signal change, negative = less light; hit rate 1.2% among 410,000; AID 1159524, 2015; active = well fitted falling curve with a large enough effect; inconclusive = small, poorly fitted or top-dose-only effect; inactive = no such curve, though single readings can be large or run the other way; tested in HEK293T cells; also: % is scaled to controls: 0 for no effect and ±100 for the full control effect; nearly all actives have a fitted effect of over 45% in size; luciferase light after 4 h
LASV entry inh: qHTS for Inhibitors of binding or entry into cells for Lassa Virus; Lassa virus pseudotype entry inhibition, cell reporter; control for the full effect not named in the record; hit rate 1.2% among 300,000; Potency, µM (doses to about 37.9 µM), inactives show top-dose activity change, negative = inhibition, usual class: inhibitors; AID 540256, 2011; active means well fitted inhibition curve with a large enough effect; inconclusive means small, poorly fitted or top-dose-only effect, or effect the other way; inactive means flat fitted curve, though single readings scatter; tested in HEK293 cells; also: % is scaled to controls: 0 for no effect and ±100 for the full control effect; nearly all actives have a fitted effect of over 50% in size; luciferase read-out
NS1 inh: qHTS Assay for Inhibitors of Influenza NS1 Protein Function. S. cerevisiae slowed by influenza A NS1, growth recovery by OD600. Potency, µM (titrated, usually from 46.1 µM), for inactives: at the highest dose activity, positive = more growth. hit rate 0.4% among 270,000. AID 2326, 2010; also: actives are rising curves; nearly all actives have a fitted effect of over 50% in size
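Growth recovery, yeast-based: influenza A NS1 expressed in S. cerevisiae causes slow growth, and suppressors are detected by OD600. The parent strain without NS1 is used as positive control.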
An asterisk follows results filed as active; ? = inconclusive; . = no result given; [ ] = remark or other dose. Unless noted, calls follow the shape of the dose curve; as a rule, active means well fitted rising curve with a large enough effect; inconclusive means small, poorly fitted or top-dose-only effect; inactive means no such curve, though single readings can be large or run the other way. Potency is read from the fitted curve at half-maximal effect.

SMILES	RE007 growth inh	MARV entry inh	Cruzain Triton	Cruzain inh noDet	SARS PLP yeast	StopGo reporter	LASV entry inh	NS1 inh
Cc1ccc(C)c(NC(=O)CN(C)C(=O)c2cccc(S(=O)(=O)N(C)C)c2)c1	-7%	-8%[46.1 µM]	.	.	0%	2%	-1%	.
O=C(CCCn1c(=O)c2sccc2n(Cc2ccc(F)cc2Cl)c1=O)NCc1ccc2c(c1)OCO2	.	16%[46.1 µM]	-2.0%	5%	.	-16%	4%[46.1 µM]	.
O=C(O)/C=C/c1ccc(S(=O)(=O)N2CCN(CCN3C(=O)C4C5C=CC(C5)C4C3=O)CC2)cc1 (stereo not drawn)	8%	.	.	.	2%	-23%	.	0%
Cc1cccc(C)c1Nc1nnc(SCC(=O)Nc2sccc2C#N)s1	20%	-34%	-10%	?	-7%	-15%	-14%	1%
N#CNC(=Nc1cccc(F)c1)SCc1cccc(F)c1	15%	-10%	-19%	?	8%	-27%	?	14%
Oc1ccc(Br)cc1-c1nc2cnccn2c1NC1CCCC1	-25%	?	-17%	5%	-36%	?	-9%	-42%
CCCc1oc(C(=O)O)cc1CN	17%	0%	2.7%	-1%	-3%	.	4%	-1%
Cc1nc(SCC(=O)Nc2ccc3[nH]c(=O)[nH]c3c2)nc(C)c1C	12%	12%	.	.	3%	-12%	10%	.
Cc1cc(C)n(CC(=O)c2cccc([N+](=O)[O-])c2)n1	4%	3%[46.1 µM]	.	.	0%	-5%	-9%[46.1 µM]	0%
O=C(COc1ccc(S(=O)(=O)N2CCCC2)cc1)Nc1ccc(F)cc1	3%	2%	.	.	1%	-6%	-8%	-6%
COC(=O)c1ccc(OCC(O)CN2CCN(CC(O)COc3ccc(C(=O)OC)cc3)CC2)cc1 (stereo not drawn)	0%	.	.	.	-1%	?	.	0%
CN1/C(=C\C(=O)COC(=O)CNC(=O)c2ccccc2F)C(C)(C)c2ccccc21	3%	6%	22µM*	20µM*	-3%	-17%	7%	-18%
CCc1cc(C(=O)N2CCN(C(=O)c3ccccc3)CC2)sc1C	-5%	5%	.	.	-4%	0%	2%	.
Cc1ccc(NC(=O)CSc2ncn(-c3ccccc3)n2)cc1C	15%	-10%	-5.6%	4%	20%	8%	11%	1%
Cc1cccc(NC(=S)N(CCCN2CCOCC2)Cc2ccco2)c1	-13%	-3%[46.1 µM]	.	.	4%	5%	-10%	.
C#CCOCCOCCOCCNc1nc(N2CCN(C(=O)[C@H]([C@@H](C)CC)n3cc(CCCN=C(N)N)nn3)CC2)nc(N2CCN(C(=O)[C@H](Cc3ccc(O)cc3)n3cc(CCO)nn3)CC2)n1	-8%	9%	?	-28%	2%	-15%	1%	-36%
COc1cc(C2c3[nH]c4ccccc4c3CC3COC(=O)N32)cc(OC)c1O (stereo not drawn)	-9%	?	.	.	.	-22%	?	.
CS(=O)(=O)c1ccc(Cl)c(NC(=O)C2CC(=O)N(Cc3ccccc3)C2)c1 (stereo not drawn)	15%	2%	3.4%	-1%	-4%	-21%	-10%	-4%
Cc1ccc(Cc2nc3ccccc3nc2SCC(=O)Nc2ccc3c(c2)OCO3)cc1	.	.	2.7%	-5%	.	6%	26%[46.1 µM]	.
CCN(CC)CCCN(Cc1cc2cc3c(cc2[nH]c1=O)OCO3)C(=S)NCCOC	-13%	.	.	.	-2%	-1%	.	-5%
O=C(CC1CC2CCC1C2)Nc1nc(-c2ccccn2)cs1 (stereo not drawn)	?	-1%[46.1 µM]	.	.	-15%	17%	?	1%
COC(=O)C(CCCCNC(=O)c1ccc([N+](=O)[O-])cc1)NC(=O)c1ccc([N+](=O)[O-])cc1 (stereo not drawn)	-5%	2%	-4.2%	-12%	13%	-8%	-6%	-1%
O=C1[C@@H]2C(c3cccnc3)=NO[C@@H]2C(=O)N1c1ccc(Cl)cc1Cl	?	.	.	.	-5%	54%[activator]	.	6%
CC(C)CCNC(=O)NC(=O)CSc1nnc(COc2ccccc2Cl)o1	-17%	?	2.2%	17%	-3%	15%	4%	-42%
CN1C2CCC1CC(N(CCc1ccccc1)C(=O)c1ccc(Cl)cc1)C2 (stereo not drawn)	-4%	.	.	.	-1%	-15%	.	-4%
CCOc1ccc(CNC(=O)CCCn2nc(C)c3sc4ccccc4c3c2=O)cc1	.	?	-7.1%	20µM*	.	-5%	-1%[46.1 µM]	.
CSc1nc2ccc(Cl)cc2[nH]1	3%	-4%	-1.0%	-8%	-40%	16%	20%	-26%
Cc1ccc(CCNC(=O)c2cc3sccc3n2Cc2ccc(Cl)cc2)cc1	.	-7%[46.1 µM]	-3.7%	?	.	-28%	-9%[46.1 µM]	.
COc1cccc(/C=N/NC(=O)C(=O)N2CCCC2)c1OC	-19%	23%	0.3%	-8%	2%	-16%	22%	0%
CCOc1cc2[nH]c(=S)n(C(C)C)c(=O)c2cc1OCC	4%	-23%	-1.6%	8%	9%	-1%	-18%	19%
Cc1ccc2nsnc2c1S(=O)(=O)Nc1ccccc1C(=O)O	-3%	.	.	.	-1%	-4%	.	0%
COCCN1C(=O)c2ccccc2C(C(=O)NCC2CCCO2)C1c1c[nH]c2ccccc12 (stereo not drawn)	-3%	23%	2.3%	14%	-3%	3%	-3%	-15%
O=S(=O)(c1cc(Cl)ccc1Br)N1CCOCC1	-6%	13%	3.3%	-1%	2%	-21%	27%	-3%
COCCCC1CCN(Cc2nc(Cc3ccccc3Cl)no2)CC1	-8%	?	.	.	-1%	12%	-10%[46.1 µM]	-3%
COc1ccc(-c2nnn(CC(=O)c3c[nH]c4ccccc34)n2)cc1OC	3%	-12%	0.6%	0%	-2%	?	-25%	-7%
CCC/C=N/Nc1nc2ccccc2s1	-13%	3%[46.1 µM]	.	.	-2%	15%	13%	3%
CCc1ccc(C2CC(=O)Nc3c2c(C)nn3-c2nc(C)cc(C)n2)cc1 (stereo not drawn)	.	-19%[46.1 µM]	-6.7%	?	.	-24%	3%[46.1 µM]	.
CCN(CC)c1ccc(NC(=O)C2CCN(c3nnc(-n4cccc4)s3)CC2)c(C)c1	.	.	-4.3%	10%	.	-20%	-14%[46.1 µM]	.
Cc1ccc(-c2nnc(Sc3nc4ccccc4o3)c3ccccc23)cc1	-3%	-24%	-4.9%	9%	-4%	61%[activator]	3%	.
N#Cc1ccc(N2Cc3ccccc3C2=NC(=O)c2cccs2)cc1	-25%	?	-7.0%	?	-14%	25%	-6%	1%
COc1cc(C(=O)Oc2cccc(C=O)c2)cc(OC)c1OC	-4%	-18%	-2.8%	7%	-2%	-7%	-12%	-8%
COC(=O)c1[nH]nc2c1C(=O)N(C1CCCCC1)C2=O	8%	-2%	4.7%	6%	-28%	0%	-14%	-83%
CC1CC(C)CN(CCCNC(=O)COc2cc(=O)n(C)c3ccccc23)C1 (stereo not drawn)	13%	-25%	4.0%	-11%	-15%	-23%	5%	-5%
COc1ccc(/C=N/N=C2/NC(=O)C(c3ccccc3)S2)c(OC)c1 (stereo not drawn)	24%	3%	-4.1%	?	9%	5%	-6%	9%
O=C(CSc1nnc(C2CC2)n1CC1CCCO1)Nc1cccc(Cl)c1 (stereo not drawn)	2%	25%[46.1 µM]	.	.	2%	8%	-1%	3%
COc1ccc(CC(=O)NCC2CCCN(Cc3ccc(OC(F)(F)F)cc3)C2)cc1 (stereo not drawn)	-7%	?	.	.	-3%	-18%	14%[46.1 µM]	11%
CC(C)c1ccc(OCC(=O)NC2CC(C)(C)NC(C)(C)C2)c(Br)c1	5%	.	.	.	-7%	5%	.	3%
Cc1ccc(NC(=O)c2cccc(S(=O)(=O)N3CCCC3)c2)nc1	-9%	9%[46.1 µM]	.	.	-4%	8%	-18%	.
O=C(NCC1CCN(Cc2ccccc2F)CC1)Nc1ccccc1F	-8%	0%	.	.	0%	7%	.	-1%
Cc1cc(C(=O)Nc2cc(C)n(Cc3ccc(Cl)cc3)n2)no1	0%	-21%	-3.1%	-16%	-13%	-24%	-17%	-9%
Cn1cnnc1SCC(=O)c1ccco1	-9%	14%	-2.4%	0%	2%	-22%	?	5%
Cc1ccc(N2CCN(C(=O)c3cnn(-c4ccc(F)cc4F)c3C3CCN(C(=O)OC(C)(C)C)CC3)CC2)c(C)c1	.	.	-3.0%	?	.	-22%	?	.
C=CCn1c(SCC(=O)NC)nc2sc3c(c2c1=O)CCC3	-11%	?	-2.7%	-3%	-7%	1%	14%	-6%
Cc1nnc(SCC(=O)NC2CCCC2)n1C(C)C	-26%	10%[46.1 µM]	.	.	25%	-1%	7%[46.1 µM]	6%
CCCOc1ccc(Oc2nc(NCC(C)C)nc(N(C)C)n2)nn1	.	-1%[46.1 µM]	0.7%	1%	.	-15%	7%[46.1 µM]	.
COc1ccc(NC(=O)CCC(=O)c2ccc(F)cc2)cc1	-11%	-1%[46.1 µM]	.	.	.	1%	-15%[46.1 µM]	.
COc1cc(OC)cc(C(=O)N2CCN(Cc3ccccc3[N+](=O)[O-])CC2)c1	21%	-32%[46.1 µM]	.	.	1%	-7%	2%	-5%
COc1cc2c(cc1OC)CN(C(=O)c1cccs1)CC2	-19%	-1%	5.8%	3%	3%	-12%	5%	-2%
Cc1oc(-c2cccc(Cl)c2)nc1CS(=O)(=O)CC(=O)NCCN1CCCC1	16%	.	.	.	-15%	0%	.	15%
CC/C(=N\O)c1ccc(O)c(OC)c1	-4%	2%	-1.5%	8%	-3%	21%	5%	13%
O=C(NC1CC1)c1ccc2c(c1)NC(=O)c1ccccc1S2	.	1%	5.0%	-6%	9%	.	.	-56%
CCOc1ccccc1CN1CCN(C2CCN(c3ccccc3F)CC2)CC1CCO (stereo not drawn)	-9%	?	.	.	0%	-20%	-22%	1%

Compound activity (PubChem BioAssay)
